VCAM-1 augmentation – enhancers of VCAM-1 display on endothelial cells, imaging, high-content imaging, pooled HUVEC, TNFa stimulus (AID 457) | Pooled HUVEC, TNFa-induced VCAM-1 immunofluorescence imaging; hits of this screen are not shown here | calls only | 10,000 tested, 0.2% active;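 active means a top-ranked rise in VCAM-1 staining upheld on image or statistical review; inactive means the rest, including candidates rejected on review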;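 further: compounds tested at 5 µM in the well; cells exposed to compound for 24 hours before fixing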
FPR ligand – human FPR ligands by binding competition, primary screen, cell-based, FPRL1 counter-screen, flow cytometry. fMet-Leu-Phe receptor (Homo sapiens), P21462. FPR-expressing cells, fluorescent ligand binding. inhibition, %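 (tested at 6.7 µM)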. 24,000 tested, 0.74% active. AID 440, 2006;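 further: 0% = buffer wells and 100% = receptor blocker peptide wells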
Target sequence (P21462 whole entry, looked up): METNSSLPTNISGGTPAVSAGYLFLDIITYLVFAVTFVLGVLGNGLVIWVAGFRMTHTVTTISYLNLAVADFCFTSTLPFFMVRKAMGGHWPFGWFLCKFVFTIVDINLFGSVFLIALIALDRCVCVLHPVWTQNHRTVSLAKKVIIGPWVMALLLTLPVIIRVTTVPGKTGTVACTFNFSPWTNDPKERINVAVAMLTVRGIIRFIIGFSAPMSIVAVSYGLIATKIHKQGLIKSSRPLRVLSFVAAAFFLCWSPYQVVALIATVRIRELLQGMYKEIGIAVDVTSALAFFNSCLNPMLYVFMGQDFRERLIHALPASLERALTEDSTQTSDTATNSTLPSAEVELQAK
FPRL1 binder – human FPRL1 ligands by binding competition, primary screen, cell-based, FPR counter-screen, flow cytometry. 24,000 tested, 0.3% active. FPRL1-expressing cells, fluorescent ligand binding inhibition. N-formyl peptide receptor 2 (Homo sapiens), P25090. inhibition, %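 (tested at 6.7 µM)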;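 further: 0% = buffer alone and 100% = receptor blocker peptide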
Target sequence (P25090 whole entry, looked up): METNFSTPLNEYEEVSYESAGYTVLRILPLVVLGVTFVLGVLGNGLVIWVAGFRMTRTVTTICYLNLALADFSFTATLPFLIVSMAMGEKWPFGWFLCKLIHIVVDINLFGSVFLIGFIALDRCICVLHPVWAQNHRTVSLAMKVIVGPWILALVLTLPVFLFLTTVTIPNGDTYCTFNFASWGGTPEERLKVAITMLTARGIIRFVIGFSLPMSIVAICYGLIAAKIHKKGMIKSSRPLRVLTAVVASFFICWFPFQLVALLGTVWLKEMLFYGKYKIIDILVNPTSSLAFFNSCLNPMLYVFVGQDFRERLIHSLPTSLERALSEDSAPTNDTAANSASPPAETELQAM
VCAM-1 inhibition – inhibitors of TNFa-induced VCAM-1 surface display, cell-based, plate reader, pooled HUVEC, TNFa stimulus (AID 454). 10,000 tested, 0.2% active. HUVEC TNFa-induced VCAM-1 surface immunofluorescence, plate reader; numbers were filed only for top-ranked candidate wells. inhibition, % at 5 µM;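 active means compound among top-ranked inhibitors of TNF-induced VCAM-1 adhesion protein staining, with the hit upheld by image or statistical review; inactive means the rest, including hits rejected on review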;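 further: 0% = TNFa with vehicle and 100% = cells without TNFa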
VCAM-1 down imaging – inhibitors of TNFa-induced VCAM-1 surface display, imaging, high-content imaging, pooled HUVEC, TNFa stimulus (AID 456). HUVEC TNFa-induced VCAM-1 surface expression, immunofluorescence imaging; numbers were filed only for top-ranked candidate wells. inhibition, % at 5 µM; hits with a dose series show IC50 in µM. 10,000 tested, 0.2% active;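 active means top tenth filtered wells with inhibition above zero that passed visual or statistical confirmation; inactive means the rest, including hits rejected on review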;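 further: 0% = stimulated vehicle wells and 100% = unstimulated cells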
The depositor's hits bear a star; i = inactive; nt = no result given.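 How the source made its calls, unless noted: active means mean above 30%; inconclusive means self-fluorescent; inactive means the rest.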 Some of the compounds tested; the hit share may differ from the screen's.

The line under a structure holds: VCAM-1 augmentation	FPR ligand	FPRL1 binder	VCAM-1 inhibition	VCAM-1 down imaging
> CCOC(=O)c1cnn(-c2cc(C)nc3c(-c4ccccc4)c(C)nn23)c1N
 : i	8.2	9.2	i	i
> COC(=O)COc1ccc2c(=O)c(Oc3ccccc3)c(C)oc2c1
 : nt	17.8	16.6	nt	nt
> CCCCOc1ccccc1NC(=O)CSc1nnnn1C(C)(C)C
 : nt	2.8	-1.5	nt	nt
> COc1cc(NC(=O)CCn2c(=O)[nH]c3ccsc3c2=O)cc(OC)c1
 : nt	2.5	-2.1	nt	nt
> O=C(Nc1nccs1)C1CCN(S(=O)(=O)c2cnc[nH]2)CC1
 : nt	3.6	-2.8	nt	nt
> Brc1ccc(C2=Nn3c(nnc3-c3ccncc3)SC2)cc1
 : i	5.1	-2.7	i	i
> O=C(CSCc1cccs1)N1CCCC1
 : i	0.8	-1.0	i	i
> CCCc1cc(C(=O)Nc2sc(C)c(CC)c2C#N)no1
 : nt	13.0	-3.3	nt	nt
> CCNCc1cc2cc(C)ccc2[nH]c1=O
 : i	-6.4	11.1	i	i
> Cc1cc2cc(CNC(=O)C3CC3)ccc2n1C
 : nt	6.6	3.8	nt	nt
> CCCCNC(=O)CCCn1c(=O)[nH]c2ccc(Br)cc2c1=O
 : nt	12.5	5.8	nt	nt
> COc1cccc(NC(=O)C2CCCN(S(=O)(=O)c3cccc4cccnc34)C2)c1 (centres undefined)
 : i	-3.7	1.2	i	i
> CC(C)Cn1c(N)c(C(=O)NCc2cccs2)c2nc3ccccc3nc21
 : i	-6.7	-5.3	i	i
> FC(F)(F)c1cc(-c2ccccc2)nc(-n2cncn2)n1
 : nt	-0.4	-8.9	nt	nt
> Nc1nnnn1NCc1cccc(OCc2ccccc2)c1
 : i	2.1	0.0	i	i
> Cc1cc(C)n2nc(S(=O)(=O)N(C)c3ccccc3)nc2n1
 : i	2.3	-2.4	i	i
> CCOC(=O)C1CCN(Cc2ccc(F)c(Br)c2)CC1
 : i	4.1	-3.1	i	i
> O=C(c1ccc(Cl)s1)N1CCN(c2nc3ccccc3s2)CC1
 : i	4.8	1.4	i	i
> Cc1noc(N)c1C(=O)Nc1ccc(F)cc1
 : nt	-4.6	-3.4	nt	nt
> Cc1nc2ccccc2c2oc(C(=O)NC3CC3)cc12
 : nt	0.0	9.4	nt	nt
> CCOC(=O)C1=C(C)NC(C)=C(C(=O)OC)C1c1cccc(Cl)c1Cl (centres undefined)
 : i	-4.0	-5.4	i	74.2%
> CCc1ccccc1NC(=O)c1ccc(F)c(S(=O)(=O)N2CCC(C(N)=O)CC2)c1
 : nt	-2.1	2.5	nt	nt
> O=C(COc1ccc2c(c1)C(=O)CC1(CCCCC1)O2)NCc1ccccn1
 : nt	-7.3	-12.6	nt	nt
> CC(=O)N1CCN(c2ccc(N=Cc3c(O)n(Cc4ccccc4)c(=O)[nH]c3=O)cc2)CC1
 : i	5.5	1.0	i	i
> COc1ccc(CCNc2oc(-c3ccco3)nc2C#N)cc1
 : i	5.0	-1.6	i	i
> Cc1ccccc1OCc1nnc(SCC(=O)NCc2ccccc2)n1C
 : i	-1.7	-4.5	i	i
> Cc1cccc(C)c1NC(=O)N1CC=C(n2c(=O)[nH]c3ccccc32)CC1
 : nt	-4.8	-1.2	nt	nt
> O=C1CC(CCC(=O)NC2CC2)c2ccccc2N1 (centres undefined)
 : nt	6.4	7.7	nt	nt
> Cc1nn(Cc2ccccc2)c2c1C(c1ccncc1)C(C#N)=C(N)O2 (centres undefined)
 : i	-9.8	-2.4	i	i
> c1ccc(CN2CCN(c3nc(-c4ccccc4)nc(-n4ccnc4)n3)CC2)cc1
 : nt	-1.8	-1.1	nt	nt
> CCOc1ccccc1Nc1ncnc2ccccc12
 : i	1.8	-3.6	i	i
> COc1c(F)c(F)c(C(=O)O)c(Nc2ccccc2)c1F
 : nt	1.3	-3.9	nt	nt
> CCOc1ccc(C2C(C(=O)c3ccco3)=C(O)C(=O)N2Cc2cccnc2)cc1OC (centres undefined)
 : nt	11.8	-2.0	nt	nt
> CC1(C)Cc2ccccc2C2CC(O)C(=O)N21 (centres undefined)
 : nt	3.2	-2.5	nt	nt
> CCSc1nc(O)c(C2OC(=O)c3c2ccc(OC)c3OC)c(=O)n1-c1ccccc1 (centres undefined)
 : i	34.3*	-0.5	i	i
> C=CCn1c(C(C)NC(=O)CCC)nc2ccccc21 (centres undefined)
 : nt	2.3	4.0	nt	nt
> Cc1ccc(-n2c3c(cc(C(=O)O)c2=O)C(=O)CC(C)(C)C3)cc1
 : i	0.9	0.5	i	i
> CS(=O)(=O)c1ccc2nc(N)sc2c1
 : nt	-4.3	-2.2	nt	nt
> COc1ccc(-c2cc(C(=O)NC(C)C)no2)cc1
 : nt	-0.5	-5.4	nt	nt
> COc1ccc2cc3cc(C(=O)NCCCN4CCOCC4)oc3nc2c1
 : nt	2.0	0.8	nt	nt
> CCCN(CCC)Cc1c(C(=O)OCC)nnn1-c1nonc1N
 : nt	5.9	-4.0	nt	nt
> COc1ccc2c(=O)c(N3C(=O)c4ccccc4C3=O)c(C)oc2c1
 : nt	25.0	23.1	nt	nt
> CC(CCc1ccccc1)NCc1ccncc1 (centres undefined)
 : i	5.0	-5.3	i	i
> COc1ccc(S(=O)(=O)N2CCN(C)CC2)cc1C
 : nt	-8.1	5.1	nt	nt
> O=C(Cn1ncc2c1-c1ccccc1OC2)Nc1ccc(S(=O)(=O)N2CCCCC2)cc1
 : nt	-0.5	-4.9	nt	nt
> COc1cc(C(=O)NCCc2ccc3c(c2)OCCO3)ccc1OCC(=O)N1CCOCC1
 : i	-3.4	-1.5	i	i
> O=C(Cc1ccc(F)cc1)N(c1ccccc1)C1C=CS(=O)(=O)C1 (centres undefined)
 : nt	3.2	2.5	nt	nt
> CCOC(=O)c1[nH]c(C)c(C(=O)NCc2ccc(Cl)cc2)c1C
 : nt	-0.4	-7.3	nt	nt
> CCOC(=O)/C(N=O)=C(\O)C1CCN(C(=O)OCC)CC1
 : nt	-1.7	6.8	nt	nt
> CCN1C(=O)c2cccc3c(NC(=O)c4ccc(S(=O)(=O)N(C)C)cc4)ccc1c23
 : i	-3.8	-4.0	97.3	12.1µM*
> CCOc1ccc2[nH]cc(C(=O)N3CCN(CC)CC3)c(=O)c2c1
 : i	5.0	1.8	i	i
> CNC(=O)Oc1ccc2c(c1)[C@]1(C)CCN(C)[C@@H]1N2C
 : i	5.2	-3.5	i	i
> Cc1cccc(-c2nc(CN3CCCC(C(=O)NC4CCC(C)CC4)C3)c(C)o2)c1 (centres undefined)
 : nt	0.8	-4.3	nt	nt
> COc1ccc(N2CCN(CCCNS(=O)(=O)c3c(C)noc3/C=C/N(C)C)CC2)cc1
 : i	-2.2	-1.6	i	i
> CCS(=O)(=O)c1nc2ccccc2n1CC(=O)N1CCOCC1
 : i	0.5	0.8	i	i
> CCSc1nc(O)c(CC)c(=O)n1C(C)CC (centres undefined)
 : i	6.5	7.3	i	i
> O=c1c2ccccc2c2ccccc2c(=O)n1Cc1cccnc1
 : nt	-8.6	3.0	nt	nt
> O=C(c1csc2ccccc12)N1CCCCCC1
 : i	-12.5	-3.1	i	i
> COc1ccccc1CNC(=O)C(NC(=O)C1CCCCC1)C(C)C (centres undefined)
 : nt	-1.0	-1.8	nt	nt
> O=C1NC(c2ccncc2)Nc2sc3c(c21)CCCC3 (centres undefined)
 : nt	-3.5	0.8	nt	nt

Following part.
The line under a structure holds: VCAM-1 augmentation	FPR ligand	FPRL1 binder	VCAM-1 inhibition	VCAM-1 down imaging
> CCOC(=O)N1CCN(c2nc(N(c3ccccc3)c3ccccc3)nc(-n3ccnc3)n2)CC1
 : nt	-4.4	-7.6	nt	nt
> Cc1cc(-c2ccco2)n(CC(=O)O)n1
 : nt	-6.7	9.5	nt	nt
> Cc1ccc(C(O)c2nc3ccccc3n2C(C)C)cc1 (centres undefined)
 : i	16.1	-0.4	i	i
> O=C(NCc1cccnc1)c1noc2c1CCCCC2
 : nt	1.6	4.3	nt	nt
> COc1ccc(CCNC(=O)CCCn2c(SCC#N)nc3ccccc3c2=O)cc1OC
 : nt	6.9	-1.6	nt	nt
> Cc1cc(/C=c2/sc3nc4ccccc4n3c2=O)c(C)n1-c1ccccn1
 : i	-13.4	-19.3	i	i
> O=C(CNC(=O)c1cc2ccccc2o1)NCc1cccs1
 : i	4.4	1.2	i	i
> CCOC(=O)c1ccccc1Nc1cc(C)nc2nc(C)nn12
 : nt	11.9	1.7	nt	nt
> Cc1nn(-c2ccc(F)cc2)c2sc(C(=O)N3CCCCCC3)cc12
 : i	-3.2	-4.5	i	i
> O=C1CC(c2ccc(F)c(Br)c2)C2=C(CCCC2=O)N1 (centres undefined)
 : i	3.1	0.4	i	i
> CCOC(=O)c1sc(Nc2nc3c(OC)cccc3s2)nc1C
 : i	11.9	-5.8	73.7*	i
> Cc1ccc(S(=O)(=O)NCCCCCC(=O)NC(C)(C)CO)cc1
 : nt	5.1	4.3	nt	nt
> Cc1ccc(OCC(=O)Nc2cc(-c3nn4c(C)nnc4s3)ccc2C)cc1
 : nt	5.2	4.7	nt	nt
> C#CC(C)(C)NC(=O)c1ccccc1OC
 : nt	-8.3	-5.1	nt	nt
> CN1C(=O)c2ccccc2C(C(=O)NCCCN2CCCC2)C1c1c[nH]c2ccccc12 (centres undefined)
 : nt	-0.3	-4.5	nt	nt
> COc1ccc(S(=O)(=O)Nc2ccc3c(c2)OCO3)cc1OC
 : nt	-1.0	-10.3	nt	nt
> Oc1ccc(-c2nc3cnccn3c2Nc2ccc3c(c2)OCCO3)cc1
 : nt	-0.9	-5.6	nt	nt
> Cn1c(=O)c(=O)n(C)c2cc(S(=O)(=O)NCCc3ccccc3)ccc21
 : nt	-3.2	10.4	nt	nt
> Cc1[nH]nc2c1C(CCc1ccccc1)C(C#N)=C(N)O2 (centres undefined)
 : i	-3.7	7.5	i	i
> CCN(CC)CCn1c(SCC(=O)NCc2ccco2)nc2c(sc3ccccc32)c1=O
 : nt	-7.8	-3.3	nt	nt
> Cn1cccc1Cc1nnc(SCC(=O)N2CCCC2)n1CCc1ccccc1
 : nt	1.7	8.7	nt	nt
> CC1(C)C(=O)Nc2ccccc2N1C(=O)COC(=O)Cn1cnc2ccccc2c1=O
 : i	-1.5	0.9	i	i
> COc1cccc(OCCn2ccnc2)c1
 : i	-3.8	0.1	i	i
> CC(C)C(=O)Nc1ccc(Nc2ccccc2)cc1
 : nt	6.0	2.6	nt	nt
> CS(=O)(=O)N1CCCC(C(=O)NCc2ccc(F)cc2Cl)C1 (centres undefined)
 : nt	3.8	-2.3	nt	nt
> CCOC(=O)C1CCCN(C(=O)Cc2c(C(=O)O)[nH]c3ccccc23)C1 (centres undefined)
 : nt	11.0	3.0	nt	nt
> COc1ccc(-n2c(Cc3cccn3C)nnc2SCC(=O)Nc2ccc(Cl)cc2)cc1
 : i	55.6*	1.0	i	i
> COCc1cc(=O)[nH]c(Nc2nc3ccccc3o2)n1
 : i	1.8	2.3	i	i
> CCOC(=O)c1ccc(S(=O)(=O)N2CCN(CCC#N)CC2)cc1
 : nt	-5.0	-3.8	nt	nt
> COC(=O)c1cc(Br)c(=O)n(CCC2=CCCCC2)c1
 : i	-7.9	3.9	i	i

Reprinted at random: 3 entries already listed.
The line under a structure holds: VCAM-1 augmentation	FPR ligand	FPRL1 binder	VCAM-1 inhibition	VCAM-1 down imaging
> Oc1ccc(-c2nc3cnccn3c2Nc2ccc3c(c2)OCCO3)cc1
 : nt	-0.9	-5.6	nt	nt
> Cn1cccc1Cc1nnc(SCC(=O)N2CCCC2)n1CCc1ccccc1
 : nt	1.7	8.7	nt	nt
> COCc1cc(=O)[nH]c(Nc2nc3ccccc3o2)n1
 : i	1.8	2.3	i	i

Next section:
The line under a structure holds: VCAM-1 augmentation	FPR ligand	FPRL1 binder	VCAM-1 inhibition	VCAM-1 down imaging
> Cn1c(C(=O)NCCCN2CCN(c3ccccc3F)CC2)cc2c(=O)n(C)c3ccccc3c21
 : nt	-2.0	-8.0	nt	nt
> O=S(=O)(Nc1cccc(C(F)(F)F)c1)c1cnc[nH]1
 : nt	-6.7	-9.6	nt	nt
> COc1cccc(Oc2ccc(N)cc2)c1
 : i	-7.2	-10.5	i	i
> O=C(C1CC2CCC1C2)N1CCN(Cc2ccc3c(c2)OCO3)CC1 (centres undefined)
 : i	0.9	0.2	i	i
> C/C(=N\O)C(=O)NCCCNCCCN(C)C
 : i	9.1	5.0	i	i
> COC(=O)C1CCCN1C(=O)C1CCCN1C(=O)CNC(=O)OCc1ccccc1 (centres undefined)
 : nt	-4.8	-0.4	nt	nt
> COc1ccccc1N1CCN(CC(O)c2ccc3cc[nH]c3c2)CC1 (centres undefined)
 : i	-1.8	-2.2	i	i

Bioassay records: PubChem BioAssay, several laboratories
